Source: PubChem BioAssay (Center for Chemical Genomics, University of Michigan)
HIV TAR-Tat: HIV-1 TAR-Tat binding disruption; HIV-1 TAR RNA, Tat peptide displacement FRET; stronger effect = higher value; actives 0.6% (n = 100,000); z-score (test concentration not listed);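 also: score is relative to mean and SD of negative controls; some compounds called inactive have numbers as strong as hits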
CDC25B-CDK2 inh: human CDC25B-CDK2/CyclinA binding inhibition; P30305+P24941; HTRF CDC25B-CDK2/CyclinA binding, anti-His/anti-Flag; stronger effect = higher value; z-score (no concentration beside the values); actives 0.72% (n = 94,000); AID 1259370;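 also: score is relative to mean and SD of negative controls; strong numbers were not always called active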
Numbers without * were called inactive; / = not tested or not shown.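 The calls were made as follows: active = z-score from 3 up in half or more of its runs; inactive = the rest.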

Start of the data: the first 15 entries, ahead of the listing:
SMILES	HIV TAR-Tat	CDC25B-CDK2 inh
CCOc1ccc(S(=O)(=O)Nc2ccc3oc(C)c(C(=O)OC(C)C)c3c2)cc1	1.1	-1.2
CC(Cc1ccccc1)NC(=O)CSc1nc(N)c2c3c(sc2n1)COC(C)(C)C3 (configuration not stated)	-0.45	-0.42
CCN1C(=O)C2(/C(=C(/O)c3ccc(C)c(F)c3)C(=O)C(=O)N2CC2CCCO2)c2ccccc21 (configuration not stated)	0.19	0.93
CCCNC(=O)NCCc1c(C)nn(CC)c1C	-1.4	/
CCCCCCn1c(CN2CCc3ccccc3C2)nc2c1c(=O)n(C)c(=O)n2C	-1.6	-1.1
COc1cnc(CSc2nnnn2C)cc1OCC(=O)N1CCCc2ccccc21	3	/
O=S1(=O)C[C@H](N2CCCC2)[C@@H](S(=O)(=O)c2cccs2)C1	-2.6	0.47
COc1ccc(S(=O)(=O)[C@H]2CS(=O)(=O)C[C@@H]2NC2CCCC2)cc1	1.3	-0.39
OC(CN1CCCC1)Cn1c2ccc(Cl)cc2c2cc(Cl)ccc21 (configuration not stated)	-0.15	-3.7
O=C(O)CCCNc1cc(N2CCC(=O)CC2)c2noc3c2c1C(=O)c1ccccc1-3	27*	14*
Cc1coc2cc3oc(=O)c4ccccc4c3cc12	/	-1.8
CCn1c(SCC(=O)c2c[nH]c3ccccc23)nnc1-c1ccco1	-0.05	-1.2
N#Cc1ccc(N2CCN(S(=O)(=O)c3ccccc3)CC2)nc1	/	-2
Nc1nc(/C(=C/CC(=O)O)C(=O)N[C@@H]2C(=O)N3C(C(=O)O)=CCS[C@H]23)cs1	-0.7	/
Cc1ccc(C2C3=C(CC(C)(C)CC3=O)Nc3ccccc3N2C(=O)NCc2ccco2)cc1 (configuration not stated)	1	/

This part in full, previewed entries included:
SMILES	HIV TAR-Tat	CDC25B-CDK2 inh
CCOc1ccc(S(=O)(=O)Nc2ccc3oc(C)c(C(=O)OC(C)C)c3c2)cc1	1.1	-1.2
CC(Cc1ccccc1)NC(=O)CSc1nc(N)c2c3c(sc2n1)COC(C)(C)C3 (configuration not stated)	-0.45	-0.42
CCN1C(=O)C2(/C(=C(/O)c3ccc(C)c(F)c3)C(=O)C(=O)N2CC2CCCO2)c2ccccc21 (configuration not stated)	0.19	0.93
CCCNC(=O)NCCc1c(C)nn(CC)c1C	-1.4	/
CCCCCCn1c(CN2CCc3ccccc3C2)nc2c1c(=O)n(C)c(=O)n2C	-1.6	-1.1
COc1cnc(CSc2nnnn2C)cc1OCC(=O)N1CCCc2ccccc21	3	/
O=S1(=O)C[C@H](N2CCCC2)[C@@H](S(=O)(=O)c2cccs2)C1	-2.6	0.47
COc1ccc(S(=O)(=O)[C@H]2CS(=O)(=O)C[C@@H]2NC2CCCC2)cc1	1.3	-0.39
OC(CN1CCCC1)Cn1c2ccc(Cl)cc2c2cc(Cl)ccc21 (configuration not stated)	-0.15	-3.7
O=C(O)CCCNc1cc(N2CCC(=O)CC2)c2noc3c2c1C(=O)c1ccccc1-3	27*	14*
Cc1coc2cc3oc(=O)c4ccccc4c3cc12	/	-1.8
CCn1c(SCC(=O)c2c[nH]c3ccccc23)nnc1-c1ccco1	-0.05	-1.2
N#Cc1ccc(N2CCN(S(=O)(=O)c3ccccc3)CC2)nc1	/	-2
Nc1nc(/C(=C/CC(=O)O)C(=O)N[C@@H]2C(=O)N3C(C(=O)O)=CCS[C@H]23)cs1	-0.7	/
Cc1ccc(C2C3=C(CC(C)(C)CC3=O)Nc3ccccc3N2C(=O)NCc2ccco2)cc1 (configuration not stated)	1	/
CCCNCc1c(C(=O)O)c(C)n(-c2ccc(Cl)cc2)c1C	1.5	/
Cn1cnc2c(=O)oc3ccc(S(=O)(=O)N4CCN(c5ccccn5)CC4)cc3c21	0.42	-0.98
Cc1nn(-c2ccc(N3CCCCC3)nn2)c(C)c1CCC(=O)N1CCN(c2ncccn2)CC1	-4.3	/
COCCn1c2c(c(=O)[nH]c1=O)C(c1ccc(F)cc1)C1=C(N2)c2ccccc2C1=O (configuration not stated)	0.51	0.2
Cc1ccccc1Nc1nc(N2CCCC2)nc2c1cnn2C	0.53	/
CSc1nc(=O)c2c(n1C)NC(=O)CC2c1cc(F)cc(F)c1 (configuration not stated)	1.2	0.92
C#CCn1c(C2CC(=O)N(CC3CC3)C2)nc2ccccc21 (configuration not stated)	0.15	1.6
O=C(NC1CC1)C1CCN(c2nnc(-n3cccc3)s2)CC1	1.1	-0.32
CCC(C)NC(=O)c1ccc2c(c1)S(=O)(=O)N=C(C)N2CC(C)C (configuration not stated)	0.74	/
O=C(Cc1ccccc1)Nc1cccc(C(=O)Nc2ccccc2C(=O)O)c1	-0.59	/
CN(CC(=O)NCc1ccccn1)S(=O)(=O)c1ccc2[nH]c(=O)ccc2c1	1.1	/
CCN(CC)C(=O)CSc1nc(-c2cccc(C)c2)nc2c1Cc1c(CO)cnc(C)c1O2	0.83	/
COc1nc(C)nc(NC(=O)Nc2sc(=S)n(C)c2C)n1	2.6	-1.6
CCc1c(CN(C)Cc2ccccc2)csc1C	0.58	/
CCN(CC)CCn1c2ccccc2n2cc(-c3ccc4c(c3)OCO4)nc12	2.6	-2
CCOC(=O)c1c(C)[nH]c(C)c1S(=O)(=O)Nc1ccc(Cl)cc1	1.7	/
Clc1ccc(OCCCSCc2nc3ccccc3[nH]2)cc1	1.9	-2.2
COc1ccc(S(=O)(=O)N2CCc3cc4ccccc4nc32)cc1C	-0.06	2.4
CCC(=O)N1c2ccc(S(=O)(=O)CCC(=O)Nc3ccc(Br)cc3F)cc2CC1C (configuration not stated)	2.5	/
CCN1CCN(c2nc(N)c([N+](=O)[O-])c(Nc3ccccc3)n2)CC1	1.8	/
CCOC(=O)c1sc(NC(=O)c2cc(=O)c3ccc(C)c(C)c3o2)c(C(=O)OCC)c1C	0.81	-0.09
CC(=O)Nc1onc(C)c1-c1nc(-c2ccc(Cl)cc2Cl)cs1	/	-1
O=C(CN1C(=O)COc2ccccc21)Nc1cccc2nsnc12	-1.5	/
O=C1Nc2ccccc2C(O)(C(=O)NC2CC2)N1c1ccccc1 (configuration not stated)	/	0.28
CSc1cccc(NC(=O)CS(=O)(=O)c2ccc3c(c2)S(=O)(=O)N=CN3)c1	1.7	/
CCOc1cc(CNCCCSc2nnnn2C)cc(Cl)c1OC	1.8	0.45
CC1CCC(NC(=O)C2(C)Cn3c(ccc3-c3ccco3)C(=O)N2C2CCCC2)CC1 (configuration not stated)	0.15	/
CC1(C)Cc2c(c(N3CCCC3)nc3sc4c(N5CCOCC5)ncnc4c23)CO1	0.49	1.1
Cc1cccc(Oc2ncnc3sc(C)cc23)c1	-0.58	/
O=C(NCc1csc(-c2ccccc2)n1)[C@H]1CSCN1C(=O)c1cccc(Br)c1	3.4	/
O=C(Cn1c(=O)oc2cc(S(=O)(=O)N3CCCCCC3)ccc21)N1CCc2ccccc21	/	-1.2
O=C(CSCc1cnn(-c2ccccc2)c1-n1cccc1)N1CCN(c2ccccn2)CC1	1.1	-0.68
Cc1ccc2c(ccc(/C=C3\Sc4ccccc4N3C)[n+]2C)c1	-9.2	0.39
Cc1ccc(/C=C/c2nc(C#N)c(N3CCN(C(=O)c4ccco4)CC3)o2)cc1	0.49	-1.8
Cc1cc(-c2ccc(C)c(S(=O)(=O)N3CCCCC3C)c2)on1 (configuration not stated)	-0.54	/

Additional compounds follow:
SMILES	HIV TAR-Tat	CDC25B-CDK2 inh
Cc1c(/C=N/Nc2ccc([N+](=O)[O-])cc2)sc2ccc(Cl)cc12	/	-1.1
CCN1C(=O)C2(/C(=C(/O)c3ccc(C)cc3)C(=O)C(=O)N2CCCN(C)C)c2ccccc21 (configuration not stated)	0.45	1.6
N#C/C(=C\c1ccc2c(c1)OCO2)C(=O)c1ccco1	/	-2.2
CC(C)OC1=NS(=O)(=O)c2ccccc21	-0.12	0.48
Cc1cc(C)cc(NC(=O)CSc2nnc(C)n3c2cc2sccc23)c1	1.2	/
CCCc1[nH]nc2c1C1(CCN(C(=O)OCC)CC1)C(C#N)=C(N)O2	0.15	-1.1
CN1CCN(CC(O)Cn2c3ccccc3c3ccccc32)CC1 (configuration not stated)	1.6	-0.58
c1ccc(-n2nc3c(n2)-c2nonc2CC3)cc1	/	0.23
O=C(O)c1cc2nc(-c3cccs3)cc(C(F)(F)F)n2n1	1.6	/
Cc1ccc(NC(=O)Nc2ccc(OCc3ccccc3)cc2)cc1NS(C)(=O)=O	/	1.5
O=C(c1ccco1)n1nc(-c2ccco2)nc1NCc1ccc(Br)cc1	0.28	-3
Cn1c(=O)c2c(nc(SCC(=O)NC(C(=O)O)(c3ccccc3)c3ccccc3)n2C)n(C)c1=O	3.2	1.2
CCC1CCCCN1CCCNC(=O)C(CC)n1nc(C)c2sc3ccccc3c2c1=O (configuration not stated)	2.6	-2.1
CN1C(=O)C(C)(C)c2cc(S(=O)(=O)N(C)CC(=O)Nc3ccc(F)cc3F)ccc21	2.5	/
O=C(NCC(c1cccs1)S(=O)(=O)c1ccc(Cl)cc1)c1cccs1 (configuration not stated)	-0.58	/
CCCCNC(=O)CCc1c(C)nc2ncnn2c1C	/	-0.68
CC(C)CNC(=O)c1cccn(-c2ccc(NC(=O)C(C)(C)C)cc2)c1=O	0.78	/
CCc1ccc(C2CC(=O)Nc3c2c(C)nn3-c2nncc(-c3ccccc3)n2)cc1 (configuration not stated)	2.1	-0.65
CN1CCN(Cc2cn[nH]c2-c2ccc(F)cc2)CC1	/	-2.2
N#CC1=C(N)C(C#N)(C#N)C2(CCCC2)C2CCC=C12 (configuration not stated)	/	-0.25
Cc1c(C(=O)O)sc2ncnc(NC3CCCC3)c12	0.65	/
COc1cc2nc(-c3ccc(C)cc3)oc(=O)c2cc1OC	0.67	0.59
O=C(Nc1ccc(Cl)cc1)c1cc2c(s1)-c1ccccc1S(=O)(=O)C2	0.52	-2.2
COc1ccc2[nH]c(C)c(CN(C)C)c(=O)c2c1	1.1	-0.81
COCCNc1cc(Br)c2noc3c2c1C(=O)c1ccccc1-3	-4.5	-1.1
CCc1nc(-c2cc(S(=O)(=O)N3CCN(C(=O)c4ccco4)CC3)c(C)s2)no1	-1.2	/
CCOc1ccc2c(c1)c(=O)c(S(=O)(=O)c1ccc(OC)cc1)cn2CC	-0.96	-1.5
Cc1ccc2c(c1)[C@@H]1C=CC[C@@H]1[C@H](c1ccncc1)N2	/	-1.1
CCc1ccc(C2N3CC4(C)CN2CC(C)(C3)C4)cc1 (configuration not stated)	1.3	0.43
Cc1nc(-c2csc(S(=O)(=O)N(C)Cc3ccco3)c2)no1	1.5	/
CCC1Sc2ccc(S(=O)(=O)CCC(=O)Nc3ccc(Cl)cn3)cc2NC1=O (configuration not stated)	-0.54	/
COc1ccc(C2c3c(oc4ccccc4c3=O)C(=O)N2c2nc(C)c(C)s2)cc1 (configuration not stated)	0.01	0.32
OC(c1ccccc1)C(CN1CCCCC1)CN1CCCCC1 (configuration not stated)	0.28	0.87
CSc1nc2c(c(=O)[nH]1)C(c1ccc(Br)cc1)c1c(nc(SC)[nH]c1=O)O2	/	-0.68
CCCNC(=O)C1CCC(Cn2c(=O)c3sccc3n(CC(=O)N3CCCC3)c2=O)CC1 (configuration not stated)	-0.85	/
CCOC(=O)Cc1nnc2c(Nc3cccc(Br)c3)nc3nonc3n12	-2.7	-0.4
O=C(Nc1nc2ccccc2s1)c1ccc(S(=O)(=O)N2CCc3ccccc32)cc1	1.4	/
Cc1c(C(=O)N2CCCCC2)c(S(=O)(=O)N2CCN(C)CC2)c(C)n1C	-1.1	/
COc1ccc(OC)c(C2C3=C(CC(C)(C)CC3=O)Nc3nc(-c4cccc(C)c4)nn32)c1 (configuration not stated)	0.89	-1.4
CCCCOc1ccc(CN2C(=O)C(=O)c3cc(Br)cc(C)c32)cc1OC	0.53	-0.38
CCCNC(=O)C1CCN(C(=O)c2cc3ccsc3[nH]2)CC1	-0.29	/
Cc1ccc(S(=O)(=O)Nc2nc(C)cc(-n3nc(C)cc3C)n2)cc1	/	1.1
O=S(=O)(NCCCc1nc2ccccc2[nH]1)c1ccccc1	-1.5	-0.94
O=S(=O)(CCN1C=CC(C(F)(F)F)=NCC1)c1ccc(Cl)cc1Cl	/	-1.3
CC(C)(C)NS(=O)(=O)c1cc2c3c(c1)CC(=O)N3CCC2	1.8	/
CN(C)CCN1C(=O)C(=O)c2ccccc21	1.7	-2.4
COC(=O)c1cc(S(=O)(=O)N2CCOCC2)cn1C	0.94	-0.86
O=C(Nc1ccc(F)c(Cl)c1)c1cc2c(s1)-c1ccccc1S(=O)(=O)C2	0.86	-0.93
COCCCNC(=O)c1oc2ccc(S(=O)(=O)N3CCCC3)cc2c1C	/	1.3
COc1ccc(-c2[nH]ncc2/C=N/NC(=O)c2cccc([N+](=O)[O-])c2)cc1	/	-2.2

Next section.
SMILES	HIV TAR-Tat	CDC25B-CDK2 inh
CC(C)(CC(=O)N1CCCCCC1)CC1=NS(=O)(=O)c2ccccc2N1	/	-2.9
COC(=O)c1ccc(CN2CCN(Cc3ccc(C(=O)OC)o3)CC2)o1	1.3	-0.05
Cc1cc(Br)ccc1NC(=O)c1cnc2sccn2c1=O	/	-4.3
CC(C)Nc1nc(-c2ccc(Cl)cc2)nc2ccccc12	0.45	0.29
CCCc1c(C)nc2ncnn2c1NCc1ccc(F)cc1	1	-0.9
Cn1cccc1CNCCCN1CCOCC1	-7.1	-1.3
Cn1c(=O)[nH]c(=O)c2c1nc(N1CCCCC1)n2CCN1CCCCC1	/	0.33
Nc1nonc1-c1nc2ccccc2n1CC(=O)Nc1ccccc1	0.15	1.6
O=C1OC(Nc2ccccc2F)c2ccccc21 (configuration not stated)	-0.22	-0.29
COc1ccc(OC)c(NC(=O)C(C)N2c3cccc4cccc(c34)S2(=O)=O)c1 (configuration not stated)	-0.19	-0.45
COc1ccc(C2Oc3c(OC)cccc3C3CC(c4cc(C)ccc4O)=NN32)cc1O (configuration not stated)	-2.3	-1.5
CC1(C)C(=O)N(CC(=O)Nc2nccs2)c2ccccc21	-0.05	/
Cc1nc2ncnn2c(N2CCN(c3ccc(Cl)cc3)CC2)c1C	0.57	0.68
C=CCSc1nnc(NC(=O)c2nc(SC(C)C)ncc2Cl)s1	1.5	-1.3
